Compound activity deposited in PubChem BioAssay by ICCB-Longwood Screening Facility, Harvard Medical School.
Ba CapD inh: Bacillus anthracis CapD inhibitors, primary screen, biochemical, fluorescence intensity. z-score (test concentration not listed). 140,000 tested, 0.23% active. purified CapD enzyme, fluorescence intensity read-out; hits give low values; some hits fall short of the stated cut. AID 492967, 2010;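 active = z-score under -4 in either of two replicates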;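 also: stock transfer was 100 nL into about 40 µL; score is relative to mean and spread of the plate; one replicate is shown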
AID504770: growth inhibition of E. coli YBA685, primary screen, V. cholerae RctB inhibitors. AID 504770, 2011. z-score (test concentration not listed). 130,000 tested, 0.27% active. E. coli YBA685 rctB-dependent plasmid, OD600 growth, 3 h; hits give low values;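 active = z-score under -2 on both plates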;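 also: wells of about 30 µL received 100 nL stock; score is relative to mean and SD of the test wells; the first replicate is given; strong numbers were not always called active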
Starred values were filed as active, the others as inactive; x = not tested or not shown; & = joins results of further samples.

SMILES	Ba CapD inh	AID504770
CCN(C(=O)c1cccc(C)c1)c1ccccc1	0.12	-0.15
COc1ccc2oc(=O)c(-c3nc(-c4ccncc4)n[nH]3)cc2c1	x	-0.65
CSC(C)c1ccn(S(=O)(=O)c2ccc(Cl)cc2)n1 (stereo not given)	-0.18	0.5
Cc1ccc(CCNS(=O)(=O)c2cnc[nH]2)cc1	-0.21	-0.65
CC1(C)Cc2nc(NC(=S)Nc3ccccc3)c(C(=O)O)cc2CO1	0.36	x
Clc1ccccc1OCc1nnc2n1CCC2	0.38	0.05
CCC(=O)Nc1ccc(S(=O)(=O)N2CCCCC2CC)cc1 (stereo not given)	0.11	-0.15
Cc1ccc2nc(-c3cccc(-c4nc5ccc(C)cc5o4)n3)oc2c1	-0.53	-0.95
O=C(O)COc1ccccc1Cc1ccccc1	-0.38	0.05
O=C(NCc1ccc2[nH]c3c(c2c1)CCCC3)c1ccc(C(F)(F)F)cc1	68	-0.25
Cc1oc(-c2cccs2)cc1C(=O)NCCNc1nccc(C(F)(F)F)n1	-0.67	-0.8
FC(F)(F)c1cc(-c2ccc(Br)cc2)n[nH]1	0.05	1.4
NNc1ncnc2c1oc1ccccc12	0.23	-0.55
CCn1c(SCC#N)nnc1-c1ccc(S(=O)(=O)N2CCCC2)cc1	x	0.4
O=C(O)CSc1nc2ccccc2c(=O)n1-c1ccccc1	x	-0.2
O=C(CSc1nnc(Nc2ccccc2)s1)NC1CCS(=O)(=O)C1 (stereo not given)	x	-0.1
Cc1nc2scc(-c3ccc(Br)cc3)c2c(=O)o1	-0.28	x
COc1cc(CNCc2cccc(C(F)(F)F)c2)cc(OC)c1	-0.24	-0.1
CC1(C)CC(NCCNC2=CC(=C(C#N)C#N)CC(C)(C)C2)=CC(=C(C#N)C#N)C1	x	0.25
c1cc2c3c(cccc3c1)C(N1CCOCC1)=N2	x	-1.4

Whole records as entered above.
Profile of `Cc1oc(-c2cccs2)cc1C(=O)NCCNc1nccc(C(F)(F)F)n1` → Ba CapD inh = -0.67; AID504770 = -0.8
Profile of `c1cc2c3c(cccc3c1)C(N1CCOCC1)=N2` → Ba CapD inh = x; AID504770 = -1.4

Going on with the list.
SMILES	Ba CapD inh	AID504770
COC(=O)C1=C(N)OC(OC)=C(C#N)C1c1ccncc1 (stereo not given)	1	-0.95
Cc1ccc(N=CC2=C(O)CCCC2=O)cc1	-2.2	-1
O=C(Nc1ccccc1)Nc1ccc(Cl)c(Cl)c1	0.13	2.4&0
CCOC(=O)C1CCCN(C(=O)CSCc2nc(-c3ccc(Cl)cc3)oc2C)C1 (stereo not given)	0.79	0.05
COc1cc(/C=N/NC(=O)CC2OC(=O)c3ccccc32)ccc1OCc1ccc([N+](=O)[O-])cc1 (stereo not given)	-0.82	x
CN(CCCn1cnc2c([nH]c3ccc(Cl)cc32)c1=O)C1CCCCC1	1.1	0.25
COc1ccc(CNC(=O)C2C3C=CC(O3)C2C(=O)O)cc1OC (stereo not given)	0.67	0.7
O=C(CSc1nnc(-c2ccncc2)n1-c1ccccc1)Nc1ccccc1	-0.21	2.2
CCC(Sc1nc2ncccc2[nH]1)C(=O)NC1CCCC1 (stereo not given)	2	-0.3
COc1ccc(S(=O)(=O)N2CCCC2C(=O)Nc2c(C)n(C)n(-c3ccccc3)c2=O)cc1 (stereo not given)	x	-1
O=C(O)c1ccc(Cl)c(N2CCCC2=O)c1	x	-0.35
CCN1C(=O)C2(Sc3ccccc3C2=O)C(=O)N(CC)C1=S	x	0.1
FC(F)(F)c1ccc(-c2[nH]ncc2-c2ccncn2)cn1	-0.14	x
OC1(c2ccc(F)cc2)CC2CCC(C1)N2Cc1nnnn1C1CCCCC1 (stereo not given)	x	-0.05
COc1ccc(/C=C2/C(=O)N(C)c3ccccc32)cc1	x	0.25
O=C(Nc1cccc(-c2nc3cc(Cl)cc(Cl)c3o2)c1)c1ccc2c(c1)OCCO2	-0.32	x
COc1ccc(-c2cc(-c3nnc(COC(=O)C4COc5ccccc5O4)o3)c3ccccc3n2)cc1OC (stereo not given)	x	-0.35
CSc1nnc2c(n1)OC(c1ccc([N+](=O)[O-])cc1)Nc1ccccc1-2 (stereo not given)	-0.78	x
CCOc1cc2[nH]c(=O)n(CC3CCC(C(=O)NCCC(C)C)CC3)c(=O)c2cc1OCC (stereo not given)	0.34	-0.35
O=C(O)C1CC(=O)N(C2CC2)C1 (stereo not given)	x	1.2
CCn1c(C(=O)N2CCC(C(=O)NCCCc3ccccc3)CC2)cc2sccc21	-0.02	-0.4
C=CCN(CC=C)C(=O)C1CCN(Cc2cc(Br)c(O)c(OC)c2)CC1	x	0.85
CC(CCc1ccccc1)NCc1c(C(=O)O)n(Cc2ccc(F)cc2Cl)c2ccccc12 (stereo not given)	-0.39	0.05
CCCCn1c(CNC(=O)c2cccs2)nnc1SC(C)C(=O)Nc1sc(C(=O)OCC)c(C)c1C(=O)OCC (stereo not given)	-0.78	x
CC12CCC(C1)C(C)(C)C2NC(=O)C1CCC1 (stereo not given)	0.67	0.5
CC(=O)Nc1cccc(N=Cc2cc(Br)ccc2O)c1	-0.58	2
O=C(c1cc2c(s1)CCC2)N1CCc2ccccc21	-0.54	-0.2
Cn1c(N)c(C(=O)CN2c3cccc4cccc(c34)S2(=O)=O)c(=O)n(C)c1=O	x	-0.25
O=S1(=O)CCC(N(CC2CCCO2)S(=O)(=O)C2=Cc3ccccc3CC2)C1 (stereo not given)	x	0.1
CC(=O)c1sc2sc(C#N)c(C)c2c1C	-0.29	x
Cc1cc(C)c2c(=O)n(C(=O)c3ccc(Cl)cc3)sc2n1	-0.88	-0.35
CC1CC(C)CN(S(=O)(=O)c2ccccc2)C1 (stereo not given)	x	-1.4
O=C(O)c1cc2cnccc2nc1C(F)(F)F	-0.23	x
CCC(=O)NCCSc1c[nH]c2ccccc12	0.045	-0.5
O=C(N/N=C/c1cccnc1)c1ccccc1CCc1ccccc1	0.44	x
COc1ccc(-c2nn(CN(C)C3CCCCC3)c(=S)n2CC2CCCO2)cc1 (stereo not given)	x	1.1
COC(=O)c1cc(-c2ccc(Cl)cc2)nc2onc(C(C)C)c12	x	-0.2
Cc1nc2ccccc2n1C1CC(=O)N(c2ccccc2)C1=O (stereo not given)	-0.66	0.65
O=C(Nc1ccccc1C(F)(F)F)C1c2ccccc2Oc2ccccc21	0.49	-0.3
COc1ccc(C2C(C#N)=C(N)OC3=C2C(=O)CC(c2ccccc2)C3)c(OC)c1 (stereo not given)	-0.08	x
OC(COc1ccc(Br)cc1)CN1CCN(c2nc(-c3ccccc3)ns2)CC1 (stereo not given)	0.4	-0.2
CC(C)(C)c1cc(Cl)c(OS(=O)(=O)c2ccc(Cl)cc2)c(Br)c1	0.15	x
CCC(=O)N=c1sc2c(OC)ccc(OC)c2n1CC	x	-0.55
Cc1cc(C)c2c(c1C(=O)Nc1cccc(C(F)(F)F)c1)CC(C)(C)C2=O	-0.41	-0.5
CCCCOc1ccc(/C=C2/N=C(c3cc(OC)c(OC)c(OC)c3)OC2=O)cc1	0.14	x
Cn1c2c(c(=O)n3ncnc13)CCCC2	1.2	-0.1
CC(C)N(C(=O)Cn1cnc2ccccc21)C(C)C	x	1.9
CC(C)c1ccc(NC(=O)c2sc3nc4c(cc3c2N)C(=O)CC(C)(C)C4)cc1	-0.43	x
O=C1CC(c2ccc(-c3ccccc3)cc2)C2=C(CCCC2=O)N1 (stereo not given)	-0.41	-0.4
COc1ccc(CCN2C(=S)NC3CC2(C)Oc2c(OC)cc(Br)cc23)cc1OC (stereo not given)	-0.16	-0.1
Nc1nc(SCC(=O)N2CCCCCC2)n[nH]1	-0.74	x
O=C1NC(C2CC=CCC2)Nc2ccccc21 (stereo not given)	-0.6	-0.35
O=C(CC1(O)C(=O)N(Cc2ccc(Cl)cc2)c2ccccc21)c1cccs1 (stereo not given)	-0.02	x
O=C(NCc1n[nH]c(=S)n1-c1ccccc1)c1ccc(S(=O)(=O)N2CCCCC2)cc1	-0.02	-0.15
O=S(=O)(O)c1cccc2cccc(Cl)c12	-0.94	x
CCCCOC1COC(OCCCC)CO1 (stereo not given)	x	-0.2
O=C(CN(CCc1ccc(F)cc1)CC(=O)N1CCc2ccccc21)N1CCc2ccccc21	x	-0.6
O=C(CN1C(=O)CSc2cc(S(=O)(=O)N3CCCC3)ccc21)NCc1ccccc1	-0.17	0.1
COc1ccc(OCCN2CCN(C(=O)c3c(C)nn(-c4ccc(F)cc4)c3C)CC2)cc1	x	0
O=C1/C(=C\c2ccc(Cl)cc2)Cc2ccccc21	-0.035	x
New compounds follow
SMILES	Ba CapD inh	AID504770
COc1ccc(-c2oc3ncn(CCCO)c(=N)c3c2-c2ccc(OC)cc2)cc1	26	0.8
COC(=O)Nc1ccc(S(=O)(=O)N2CCC(C(=O)N3CCCC(C)C3)CC2)cc1 (stereo not given)	-0.2	x
O=C(Nc1cccnc1)C(Cc1ccccc1)N1C(=O)C2C3C=CC(C3)C2C1=O (stereo not given)	-0.27	0.8
O=C(O)CC1=Nn2c(nnc2-c2cccs2)SC1	-1.1	-0.95
CC1(C)CC2CC(C)(CN2C(=O)COc2ncnc3ccccc23)C1 (stereo not given)	x	0.1
Cc1cc(C)nc(SCC(=O)n2c(C)c(C)c3ccccc32)n1	-0.16	2.5
N#Cc1ccc(-c2ccc(F)cc2)n(Cc2c(F)cccc2Cl)c1=O	-0.13	x
CCNc1nc(Oc2ccc(Cl)cc2Cl)cc(C(F)(F)F)n1	0.22	x
CSc1c(C)c(C#N)c(=O)n(NC(=O)COc2ccc(C#N)cc2)c1C	x	0.4
COc1cccc(C2CC(c3ccccc3)=NN2C(=O)CCCC(=O)O)c1OC (stereo not given)	0.065	x
Cc1ccccc1C1=NC(c2ccc(F)cc2F)ON1 (stereo not given)	-0.26	-0.25
COc1ccc(CNC(=O)CCc2c(C)nc3nc(C)nn3c2C)cc1	0.41	-0.95
Cc1cc2ccccc2c(=O)n1CC(=O)NCC(=O)NC1CCCCC1	13	0.35
Cc1sc2nc(CSCC(=O)c3cc(C)n(-c4ccc(Br)cc4)c3C)[nH]c(=O)c2c1C	x	0.1
CCC1=N/C(=C\c2ccc(Br)cc2)C(=O)O1	-0.56	-0.25
CC(=O)N/N=C/c1ccccc1	0.29	-0.25
O=S(=O)(Nc1ccccc1Cl)c1ccc2[nH]c(=S)oc2c1	18	-0.25
CC(=O)c1c(C)n(S(=O)(=O)c2ccc(C(C)(C)C)cc2)c2ccc(NS(=O)(=O)c3ccc(C(C)(C)C)cc3)cc12	-0.035	x
Cc1cc(N2CCN(C(=O)C3CCC3C(=O)O)CC2)c2ccccc2n1 (stereo not given)	12	-0.4
CCN(CC(O)c1cccc(O)c1)C(=S)Nc1cccnc1 (stereo not given)	x	-2
O=C(CNCC1CCCCC1)Nc1cccc(F)c1	x	-0.55
Cc1ccc(-n2c(C)cc(C=C3C(=O)c4ccccc4C3=O)c2C)cc1	0.27	0.7
Brc1ccc(-c2nc(-c3ccc(-c4nc(-c5ccc(Br)cc5)[nH]c4-c4ccccc4)cc3)c(-c3ccccc3)[nH]2)cc1	0.56	x
Cc1ccc(S(=O)(=O)NC23CC4CC(C2)CC(C(=O)O)(C4)C3)cc1	x	-0.2
CCOC(=O)c1c(NC(=O)C(C)Sc2nnc(CNC(=O)c3ccc(C)c([N+](=O)[O-])c3)n2C)sc2c1CCCC2 (stereo not given)	-0.38	x
CSC1=C(C#N)C(c2cccc(Cl)c2Cl)C2=C(CCCC2=O)N1 (stereo not given)	2.1	0
Cc1[nH]c(=S)[nH]c(=O)c1Oc1ccc(=O)[nH]n1	-0.45	-0.2
CC1CN(C(=O)CCC(=O)NCc2ccco2)c2ccccc2O1 (stereo not given)	19	0.2
O=C(OCCN1CNC(=S)NC1)N1CCC(O)(Cc2ccccc2)CC1	-0.62	x
COc1ccc([C@@H]2[C@@H](C(C)=O)N3c4ccccc4C=C[C@@H]3C2(C#N)C#N)cc1	0.61	x
COc1ccc(NC(=O)CN(C)C(=O)C2CC(=O)N(c3cccc(C)c3C)C2)cc1 (stereo not given)	x	1.4
O=C(O)c1cc(N2C(=O)/C(=C/c3ccc([N+](=O)[O-])cc3)C=C2c2ccccc2)ccc1O	-0.83	x
O=C(CCN1c2ccccc2Sc2ccccc21)OCc1nnc(-c2ccccc2)o1	x	0.5
NC(=S)CC(=O)NCc1ccccc1	x	-0.1
CCOCCOC(=O)COc1ccc2c(=O)c(-c3ccc(OC)c(OC)c3)c(C(F)(F)F)oc2c1	0.3	x
CCN(C(=O)Cc1c(C(=O)O)n(CC)c2ccccc12)c1cc(OC)ccc1OC	0.12	x

Gathered by group, the compounds so far containing an aryl thioether with sulfur outside any ring (12)
SMILES	Ba CapD inh	AID504770
CCn1c(SCC#N)nnc1-c1ccc(S(=O)(=O)N2CCCC2)cc1	x	0.4
O=C(O)CSc1nc2ccccc2c(=O)n1-c1ccccc1	x	-0.2
O=C(CSc1nnc(Nc2ccccc2)s1)NC1CCS(=O)(=O)C1 (stereo not given)	x	-0.1
O=C(CSc1nnc(-c2ccncc2)n1-c1ccccc1)Nc1ccccc1	-0.21	2.2
CCC(Sc1nc2ncccc2[nH]1)C(=O)NC1CCCC1 (stereo not given)	2	-0.3
CSc1nnc2c(n1)OC(c1ccc([N+](=O)[O-])cc1)Nc1ccccc1-2 (stereo not given)	-0.78	x
CCCCn1c(CNC(=O)c2cccs2)nnc1SC(C)C(=O)Nc1sc(C(=O)OCC)c(C)c1C(=O)OCC (stereo not given)	-0.78	x
CCC(=O)NCCSc1c[nH]c2ccccc12	0.045	-0.5
Nc1nc(SCC(=O)N2CCCCCC2)n[nH]1	-0.74	x
Cc1cc(C)nc(SCC(=O)n2c(C)c(C)c3ccccc32)n1	-0.16	2.5
CSc1c(C)c(C#N)c(=O)n(NC(=O)COc2ccc(C#N)cc2)c1C	x	0.4
CCOC(=O)c1c(NC(=O)C(C)Sc2nnc(CNC(=O)c3ccc(C)c([N+](=O)[O-])c3)n2C)sc2c1CCCC2 (stereo not given)	-0.38	x

Outcome played no part in choosing rows. Share with any hit: about 0.37%.
